High-throughput results as filed in PubChem.
SARS PLP yeast – SARS-CoV PLP inhibition in yeast; S. cerevisiae expressing SARS-CoV PLpro, growth rescue; control for the full effect not named in the record; Potency, µM (series often up to 32.9 µM), without a hit: at the top dose activity, positive = growth rescue; 0.19% of 330,000 active; AID 485353; note: 0% is about no effect; nearly all actives have a fitted effect of over 55% in size; growth read by luminescence after 48 h
StopGo reporter – lowers the luciferase signal of an FMDV 2A StopGo reporter | 1.2% of 410,000 active | human cells with a luciferase reporter of 2A StopGo recoding; control for the full effect not named in the record | AID 1159524 | Potency, µM (top dose mostly 57.9 µM), for the others: at the highest dose signal change, negative = less light; active = well fitted falling curve with a large enough effect; inconclusive = small, poorly fitted or top-dose-only effect; inactive = no such curve, though single readings can be large or run the other way; tested in HEK293T cells; note: % is set by controls: 0 for no effect and ±100 for the full control effect; nearly all actives have a fitted effect of over 45% in size; luciferase light after 4 h
Cruzain inh Det – cruzain (T. cruzi) inhibition with detergent; P25779; purified cruzain, Z-FR-AMC fluorescence, 0.01% Triton; Potency, µM, for the others: max response, negative = inhibition, actives largely listed as inhibitors; 0.43% of 200,000 active; active = well fitted curve in the direction sought with a large enough effect; inconclusive = small, poorly fitted or top-dose-only effect, or another doubt; inactive = no such curve, though single readings can be large; an effect the other way counts as inactive or inconclusive;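 note: plate controls were neutral wells for no effect and buffer without enzyme for full effect; nearly all actives have a fitted effect of over 40% in size; top concentration of the series not given in the record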
Target sequence (P25779 123-467 limits assumed): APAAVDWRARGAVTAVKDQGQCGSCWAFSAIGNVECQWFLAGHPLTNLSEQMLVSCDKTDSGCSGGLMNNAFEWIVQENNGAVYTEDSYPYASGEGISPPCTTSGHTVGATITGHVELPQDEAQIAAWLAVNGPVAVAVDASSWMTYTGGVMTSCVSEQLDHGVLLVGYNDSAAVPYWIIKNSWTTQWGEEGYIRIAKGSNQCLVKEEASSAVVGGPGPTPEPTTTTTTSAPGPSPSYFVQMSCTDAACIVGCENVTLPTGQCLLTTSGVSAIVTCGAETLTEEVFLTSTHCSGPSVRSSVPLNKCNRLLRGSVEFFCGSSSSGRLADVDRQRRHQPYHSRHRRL
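Enzyme 1.5 nM, Z-FR-AMC 2 uM, NaOAc 100 mM pH 5.5, DTT 5 mM, Triton X-100 0.01%; 15 min RT compound preincubation; kinetic ex360/em450, 60 s delta.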
RE007 growth inh – less growth of the S. pombe RE007 Vpr strain. AID 651644. 0.21% of 360,000 active. S. pombe RE007 Vpr strain, BacTiter-Glo ATP luminescence, 24 h; control for the full effect not named in the record. Potency, µM (doses to about 92.2 µM), inactives show top-dose activity change, negative = less growth; active = well fitted falling curve with a large enough effect; inconclusive = small, poorly fitted or top-dose-only effect; inactive = no such curve, though single readings can be large or run the other way;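 note: % is set by controls: 0 for no effect and ±100 for the full control effect; nearly all actives have a fitted effect of over 50% in size; the assay follows cell death caused by Vpr and the record does not say whether a fall means rescue or toxicity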
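Fission yeast RE007 carrying one integrated HIV-1 vpr copy, seeded at OD 0.01 in PMG+AL medium with 23 nL pinned compound. Grown 24 h at 30 degrees; viability read by BacTiter-Glo luminescence after 5 min.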
MARV entry inh – blocks Marburg virus binding to or entry into cells | Marburg virus pseudotyped entry inhibition, cell reporter; control for the full effect not named in the record; about a third of the inactives were read at about 46 µM | Potency, µM (doses to about 37.8 µM), without a hit: at the highest dose activity change, negative = inhibition, usual class: inhibitors | 1.8% of 300,000 active; active = well fitted inhibition curve with a large enough effect; inconclusive = small, poorly fitted or top-dose-only effect, or effect the other way; inactive = flat fitted curve, though single readings scatter; tested in HEK293 cells; about a fifth of its hits are not listed in these tables; note: % is set by controls: 0 for no effect and ±100 for the full control effect; luciferase read-out
Lassa entry inh – blocks Lassa virus binding to or entry into cells. Lassa virus pseudotype entry inhibition, cell reporter; control for the full effect not named in the record. Potency, µM (doses to about 37.9 µM), for inactives: at the top dose activity change, negative = inhibition, hits mostly inhibitors. 1.2% of 300,000 active; active means well fitted inhibition curve with a large enough effect; inconclusive means small, poorly fitted or top-dose-only effect, or effect the other way; inactive means flat fitted curve, though single readings scatter; tested in HEK293 cells; note: % is set by controls: 0 for no effect and ±100 for the full control effect; nearly all actives have a fitted effect of over 50% in size; luciferase read-out
NS1 inh – inhibitors of influenza NS1 protein function | S. cerevisiae slowed by influenza A NS1, growth recovery by OD600 | Potency, µM (highest dose often 46.1 µM), inactives show top-dose activity, positive = more growth | 0.4% of 270,000 active; note: actives are rising curves; nearly all actives have a fitted effect of over 50% in size
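Read-out: OD600 growth recovery of NS1-expressing budding yeast. Cells grown overnight at 30C in -URA glucose medium, washed, resuspended and diluted 1:100 in 2% galactose assay medium, pH 6.0. Same strain lacking NS1 served as positive control.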
Cruzain inh noDet – inhibitors of Trypanosoma cruzi cruzain without detergent; 2.3% of 200,000 active; purified cruzain, Z-FR-AMC fluorescence, no detergent; AID 1476; Potency, µM, without a hit: max response, negative = inhibition, hits mostly inhibitors; P25779; active = well fitted curve in the direction sought with a large enough effect; inconclusive = small, poorly fitted or top-dose-only effect, or another doubt; inactive = no such curve, though single readings can be large; an effect the other way counts as inactive or inconclusive;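 note: plate controls were enzyme without inhibitor for no effect and buffer without enzyme for full effect; nearly all actives have a fitted effect of over 40% in size; top concentration of the series not given in the record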
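Purified cruzain at 1.5 nM, pre-incubated 15 min with compound at room temperature in 100 mM sodium acetate pH 5.5, 5 mM DTT, 0.00005% Triton X-100. Reaction started with 2 uM Z-FR-AMC; AMC fluorescence increase over 60 s gives rate.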
* hit, by the source's call; ? = inconclusive; . = not tested or not shown; & = joins results of further samples; [ ] = remark or other dose. Unless noted, calls come from the whole dose curve; as a rule, active means well fitted rising curve with a large enough effect; inconclusive means small, poorly fitted or top-dose-only effect; inactive means no such curve, though single readings can be large or run the other way. Potency is the fitted concentration of half-maximal effect.

smiles	SARS PLP yeast	StopGo reporter	Cruzain inh Det	RE007 growth inh	MARV entry inh	Lassa entry inh	NS1 inh	Cruzain inh noDet
CN(C)C1(CNC(=O)CC(NC(=O)c2ccccc2Cl)c2ccccc2)CCCCC1 (stereo not drawn)	-15%	-1%	.	-2%	?	7%	-16%	.
CC1CCN(C(=O)Cn2nnc(-c3cccs3)n2)CC1	0%	65%[activator]	.	-2%	.	.	-1%	.
COc1cc(/C=C(\NC(=O)c2ccccc2)C(=O)NCC(=O)O)c([N+](=O)[O-])cc1OC	0%	-8%	-0.6%	-6%	8%	16%	-1%	-11%
CCOc1ncccc1C(=O)NCC(c1ccco1)N1CCCCC1 (stereo not drawn)	-7%	-11%	.	-18%	?	-4%	.	.
O=C(CC1CCCC1)Nc1nnc(C2CC2)s1	0%	24%	1.8%	-14%	15%	17%	-5%	5%
COc1ccc(N2CCN(C(=O)CN3CCSc4ccccc43)CC2)cc1	.	?	-6.1%	.	.	5%[46.1 µM]	.	?
O=C(CSc1nnc(-c2ccncc2)n1CC1CCCO1)NCc1ccccc1 (stereo not drawn)	9%	-16%	-0.6%	9%	?	-5%	6%	9%
CN(C[C@H](Cc1ccccc1)N(C[C@H](Cc1cccc2ccccc12)N(CCc1ccccc1)N=O)N=O)N=O	0%	7%&9%	.	-6%&-5%	.	.	?	.
Cc1ccc(S(=O)(=O)n2[nH]c(=O)cc2N)cc1	-1%	-2%	.	3%	.	.	6%	.
O=C(NCC1COc2ccccc2O1)C1CCC(CNc2c(N3CCCCC3)c(=O)c2=O)CC1 (stereo not drawn)	-2%	-22%	-0.5%	-13%	-3%	.	-35%	-13%
CN1CCC(=NNC(=O)CSCc2ccccc2)CC1	-2%	.	4.5%	-6%	0%	8%	?	8%
O=C(Nc1ccc2nc3n(c(=O)c2c1)CCCCC3)c1cccc(C(F)(F)F)c1	.	?	5.3%	.	20%[46.1 µM]	?	.	14%
CCOC(=O)C(CC)Sc1nnc2n1C(C)(C)Cc1ccccc1-2 (stereo not drawn)	3%	-9%	2.7%	0%	-6%	8%	-6%	0%
O=c1c(Cc2ccc(F)cc2)c(O)ccn1CCCn1ccnc1	1%	-12%	.	2%	1%	-23%	11%	.
CCOc1ccccc1NC(=O)c1nnn(-c2ccc3c(c2)OCCO3)c1N	-21%	-5%	.	25%	?	0%	0%	.

In another format: entries from further up
CN(C)C1(CNC(=O)CC(NC(=O)c2ccccc2Cl)c2ccccc2)CCCCC1 (stereo not drawn)
  SARS PLP yeast = -15%
  StopGo reporter = -1%
  Cruzain inh Det = .
  RE007 growth inh = -2%
  MARV entry inh = ?
  Lassa entry inh = 7%
  NS1 inh = -16%
  Cruzain inh noDet = .

O=C(NCC1COc2ccccc2O1)C1CCC(CNc2c(N3CCCCC3)c(=O)c2=O)CC1 (stereo not drawn)
  SARS PLP yeast = -2%
  StopGo reporter = -22%
  Cruzain inh Det = -0.5%
  RE007 growth inh = -13%
  MARV entry inh = -3%
  Lassa entry inh = .
  NS1 inh = -35%
  Cruzain inh noDet = -13%

Further results.
smiles	SARS PLP yeast	StopGo reporter	Cruzain inh Det	RE007 growth inh	MARV entry inh	Lassa entry inh	NS1 inh	Cruzain inh noDet
COc1ccc2nc(NC(=O)CNS(=O)(=O)c3cccs3)sc2c1	5%	.	-0.7%	-1%	2%	12%	-1%	-9%
CC(C)C(OC(=O)c1ccco1)C(=O)NCc1cccs1 (stereo not drawn)	-3%	-11%	1.9%	-9%	-18%	16%	2%	-13%
N#Cc1c(-c2ccc(Cl)cc2)c2c([nH]c1=O)-c1ccccc1OC2	-7%	-18%	.	-4%	-14%	22%	-4%	.
O=c1[nH]c2ccc(NCc3ccc(OCc4ccccc4Cl)cc3)cc2[nH]1	1%	4%	.	5%	.	.	5%	.
Cc1ccccc1Oc1nc2c(C)cccn2c(=O)c1/C=C(\C#N)C(=O)NC1CCS(=O)(=O)C1 (stereo not drawn)	-1%	20µM*	.	1%	?	13µM*	-8%	.
CCOCCCNC(=O)C(c1ccc(C)cc1)N(Cc1ccc2c(c1)OCO2)C(=O)c1cnccn1 (stereo not drawn)	-2%	-7%	-4.0%	3%	2%	?	-13%	?
O=C(CSc1nc2nccnc2c(=O)n1CCc1c[nH]c2ccccc12)Nc1ccccc1	.	-6%	1.2%	.	.	16%[46.1 µM]	.	-10%
CC(C)CN(C(=O)c1ccc2c(c1)OCO2)C1CCS(=O)(=O)C1 (stereo not drawn)	-16%	-6%	.	-1%	10%[46.1 µM]	13%	.	.
O=c1[nH]c(C(F)(F)C(F)(F)C(F)(F)F)no1	.	-2%	.	-5%	20%	11%	.	.
Cc1ccc2nc(NC(=O)Cn3cc4c(n3)CCCCC4)sc2c1	4%	-7%	-8.5%	2%	.	.	14%	-2%
O=C(CN1C(=O)NC2(CCCC2)C1=O)N1CCN(S(=O)(=O)c2ccccc2Br)CC1	-2%	-3%	.	11%	-1%[46.1 µM]	-10%[46.1 µM]	1%	.
CC(=O)Nc1ccc(C(=O)OCc2ccc(F)cc2Cl)cc1	-17%	-9%	.	13%	3%[46.1 µM]	-20%[46.1 µM]	.	.
C[C@]12CCC(=O)CC1CCC1C2CC[C@]2(C)C(OC(=O)CCC(=O)O)CCC12 (stereo partly drawn)	-3%	-18%	.	-2%	-5%	?	1%	.
O=C(Cn1cnc2ccccc21)N/N=C/c1cccnc1	0%	18%	.	7%	-2%[46.1 µM]	14%[46.1 µM]	.	.
COc1ccccc1CCc1nnc(CCC(=O)NC(C)Cn2nc(C)cc2C)o1 (stereo not drawn)	0%	-2%	.	5%	-10%[46.1 µM]	4%[46.1 µM]	-2%	.

New compounds follow.
canonical_smiles	SARS PLP yeast	StopGo reporter	Cruzain inh Det	RE007 growth inh	MARV entry inh	Lassa entry inh	NS1 inh	Cruzain inh noDet
O=C(CCCN1C(=O)/C(=C/c2ccc(F)cc2)SC1=S)NCCCn1ccnc1	-2%	15%	.	-12%	-1%[46.1 µM]	-16%[46.1 µM]	3%	.
CC(=O)c1ccc(N2CCN(c3ccc4cc(S(=O)(=O)N5CCCCC5)ccc4n3)CC2)cc1	.	-18%	1.4%	.	.	?	.	-4%
CCn1cc2nc(SCc3cccc(C)c3)n(CCc3ccccc3)c(=O)c2n1	.	0%	-3.3%	.	.	?	.	?
COc1ccc(OC)c2c1C(=O)c1ccccc1C2=O	-25%	-3%	-4.6%	-8%	0%	-10%	-6%	2%
CC(=O)N(CN1C(=O)C2C3C=CC(C3)C2C1=O)c1cccc(Cl)c1 (stereo not drawn)	-3%	5%	.	-21%	-15%[46.1 µM]	-26%[46.1 µM]	.	.
CSc1ncccc1C(=O)Nc1ccccc1N1CCOCC1	-8%	0%	.	0%	26%	-4%	.	.
CCOc1ccc(/C=N/NC(=O)C(OC)c2ccccc2)cc1 (stereo not drawn)	4%	5%	.	-5%	?	25%[46.1 µM]	.	.
COc1ccc(C(=O)N2CCCC(CO)(Cc3ccccc3C)C2)o1 (stereo not drawn)	-3%	42%[activator]	.	3%	0%	-4%	9%	.
CCn1c(SCC(=O)NCC2CCCO2)nnc1-c1ccc(S(=O)(=O)N2CCN(C)CC2)cc1 (stereo not drawn)	0%	3%	.	1%	28%[46.1 µM]	-4%	3%	.
CN1C(=O)CC(C(=O)O)SC1=Nc1ccc(F)cc1 (stereo not drawn)	4%	.	0.3%	4%	-1%	-2%	14%	4%
CN(C)Cc1nnnn1-c1ccccc1	-1%	4%	.	5%	4%[46.1 µM]	-2%	5%	.
CC(=O)Nc1sc(/C(C#N)=C/c2ccc(Cl)c(Cl)c2)nc1-c1ccc(C)cc1	-11%	-22%	-7.2%	9%	7%	12%	45%	?
COc1ccc(C2=NN(C(=O)c3cccc([N+](=O)[O-])c3)C(c3cccc([N+](=O)[O-])c3)C2)cc1 (stereo not drawn)	2%	-9%	0.2%	-7%	-3%	-24%	8%	?
CCOC(=O)C(NC(C)=O)C(OC(C)=O)c1cccc(N(CCCl)CCCl)c1 (stereo not drawn)	18%	-7%	0.8%	9%	?	?	7%	?
Cc1ccc(C(=O)NCC(=O)OCC(=O)Nc2ccccc2[N+](=O)[O-])cc1	-3%	-8%	11µM*	-9%	-7%	13%	7%	7.9µM*

Further records.
canonical_smiles	SARS PLP yeast	StopGo reporter	Cruzain inh Det	RE007 growth inh	MARV entry inh	Lassa entry inh	NS1 inh	Cruzain inh noDet
Cc1noc(C)c1S(=O)(=O)N(CC(=O)NCc1ccccc1Cl)c1ccc(C(C)C)cc1	.	-23%	-7.8%	.	-42%[46.1 µM]	-22%[46.1 µM]	.	-4%
CCc1nc2cccnc2n1-c1ccc(CC(=O)O)cc1	2%	-1%	.	0%	?	12%	4%	.
CC(=O)NCCOc1cccc2ccccc12	-4%	32%[activator]	-1.3%	9%	21%	-3%	1%	4%
COc1cc(N)c2ncccc2c1Br	.	28%	.	-21%	-10%[46.1 µM]	25%[46.1 µM]	.	.
N#C/C(=C1\CCCN1)c1nc(-c2ccccc2)cs1	-12%	.	-5.9%	1%	0%	-25%	-11%	-18%
O=C(NC(=S)NC1CCS(=O)(=O)C1)c1ccccc1 (stereo not drawn)	0%	2%	.	6%	.	.	4%	.

This is a random part of the collection; overall some 4.6% were active at least once.
